Screening results deposited in PubChem by several laboratories.
ALR inh – blocks human ALR sulfhydryl oxidase activity; P55789; purified ALR, DTT oxidation, H2O2 HRP-luminol luminescence; inhibition, % (test concentration not listed); hit rate 3.8% among 290,000; AID 485317;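 active = mean and each replicate at 75% or more; inconclusive = only one of the two met; inactive = neither met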;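 also: stock transfer was 7.5 nL into about 7.5 µL; 0% = neutral wells and 100% = wells with inactivated enzyme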
Target sequence (P55789 whole entry, looked up): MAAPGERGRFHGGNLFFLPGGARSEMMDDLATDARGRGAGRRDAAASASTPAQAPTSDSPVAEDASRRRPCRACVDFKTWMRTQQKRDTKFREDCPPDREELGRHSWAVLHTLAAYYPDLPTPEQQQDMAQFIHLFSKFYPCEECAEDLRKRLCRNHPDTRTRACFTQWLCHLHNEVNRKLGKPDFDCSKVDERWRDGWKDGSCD
Beta2AR agonist – human beta-2 adrenergic receptor agonism by FAP; P07550; Am2.2-beta2AR cells, FAP receptor internalization, flow cytometry; reference of the scale not given here; response, % (no concentration beside the values); hit rate 0.43% among 340,000; AID 504454;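 active = response above a set limit, near 3 SD of response in nonfluorescent compounds, cut at about 42% in these data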;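 also: stock transfer was 100 nL into about 11 µL; a reference agonist was the positive control; negative values mostly stem from fluorescent compounds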
Target sequence (P07550 whole entry, looked up): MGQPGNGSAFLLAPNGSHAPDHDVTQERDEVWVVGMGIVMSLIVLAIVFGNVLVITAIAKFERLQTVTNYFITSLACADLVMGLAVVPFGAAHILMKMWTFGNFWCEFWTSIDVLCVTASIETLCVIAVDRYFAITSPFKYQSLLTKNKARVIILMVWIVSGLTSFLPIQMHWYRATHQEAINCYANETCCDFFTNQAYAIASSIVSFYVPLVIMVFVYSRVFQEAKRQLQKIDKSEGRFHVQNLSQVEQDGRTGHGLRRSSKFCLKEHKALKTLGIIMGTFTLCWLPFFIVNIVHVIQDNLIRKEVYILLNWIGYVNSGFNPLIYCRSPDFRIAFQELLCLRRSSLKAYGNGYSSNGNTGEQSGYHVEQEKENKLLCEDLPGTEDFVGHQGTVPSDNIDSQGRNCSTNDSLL
HNF4A DNA FP – change in binding of human HNF4 alpha to DNA; P41235; HNF4a-FITC DNA binding, fluorescence polarization, 1 h; activity change, % at 10 µM; hit rate 0.3% among 360,000; AID 1224865; in the data active = activity change above about 30%, passing the limit was not always enough;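 also: controls were the assay level and a saturating level of protein; the project sought stronger binding though the title names inhibitors; some compounds called inactive have numbers as strong as hits; positive values seem to mean higher polarization but the record does not say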
Target sequence (P41235 whole entry, looked up): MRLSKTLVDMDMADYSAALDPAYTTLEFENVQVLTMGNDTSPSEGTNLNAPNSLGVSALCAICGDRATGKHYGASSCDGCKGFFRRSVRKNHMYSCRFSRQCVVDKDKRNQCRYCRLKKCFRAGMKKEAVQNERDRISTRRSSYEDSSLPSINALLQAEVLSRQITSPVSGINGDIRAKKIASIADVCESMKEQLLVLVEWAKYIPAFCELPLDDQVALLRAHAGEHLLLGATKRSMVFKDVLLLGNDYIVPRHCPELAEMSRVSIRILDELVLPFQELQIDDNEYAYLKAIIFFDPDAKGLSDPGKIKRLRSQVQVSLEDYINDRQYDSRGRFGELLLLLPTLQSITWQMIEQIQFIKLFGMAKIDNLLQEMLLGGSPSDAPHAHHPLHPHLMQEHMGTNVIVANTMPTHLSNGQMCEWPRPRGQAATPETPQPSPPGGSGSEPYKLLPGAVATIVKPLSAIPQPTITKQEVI
Calb FLC – C. albicans growth modulation with fluconazole | hit rate 0.57% among 300,000 | C. albicans CaCi-2 (fluconazole-resistant clinical isolate) + fluconazole, Alamar Blue growth, 48 h | growth inhibition, % (test concentration not listed);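 active = most replicates above 75%; inconclusive = exactly half above 75%; inactive = most below 75%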;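 also: all wells also contain fluconazole at 8 µg/ml as a sub-toxic cotreatment; 0% = median of DMSO wells and 100% = median of geldanamycin control wells; wells of about 8 µL received 7.5 nL stock; the first replicate is given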
LANA-H2A inh – blocks KSHV LANA binding to histone H2A/H2B; cell-free LANA-H2A/H2B peptide, fluorescence polarization; Q9QR71; hit rate 0.6% among 320,000; inhibition, % (concentration not given with the values); AID 2629; in the data active = inhibition mostly above about 10%, no sharp cut-off; inactive = mostly below about 6.7%;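 also: stock transfer was 7.5 nL into about 10 µL; 0% = median of vehicle wells and 100% = median of positive control wells; one replicate is shown; the record names a cut of 25% in any replicate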
RanGTP-Impb inh – disruptors of Ran-importin-beta complex formation – biochemical, FRET, CFP-Ran, YFP-importin-beta, homogeneous, primary screen; cell-free CFP-Ran/YFP-importin-beta FRET ratio; inhibition, % (no concentration beside the values); hit rate 1.1% among 300,000; AID 2216;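 active = most replicates above 15%; inconclusive = exactly half above 15%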;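 also: 0% = DMSO wells and 100% = Ran loaded with GDP instead of GTP; wells of about 40 µL received 100 nL stock; the first replicate is given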
Vif A3G – inhibitors of Vif binding to APOBEC3G peptide, primary screen, biochemical, TR-FRET, GST-Vif 1-94, biotin-A3G peptide, dose response retest (AID 1117319). TR-FRET GST-Vif / biotin-A3G peptide binding; higher % means a stronger effect; test concentration not given here; strong numbers were not always called active. one-dose inhibition, %; IC50 in µM for titrated hits. hit rate 0.57% among 260,000;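 active = above the screen mean plus three standard deviations and confirmed in dose response; inconclusive = results disagree or hit not tested in dose response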;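 also: Vif residues 1-94 fused to GST binding biotinylated APOBEC3G peptide 110-148; 0% = full assay without inhibitor and 100% = GST in place of GST-Vif; retest series ran down from 100 µM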
Starred values were filed as active, the others as inactive; ? = inconclusive; . = not tested or not shown; & = joins results of further samples. An unsorted share of the library; about 6.3% have a hit in one of these screens.

SMILES	ALR inh	Beta2AR agonist	HNF4A DNA FP	Calb FLC	LANA-H2A inh	RanGTP-Impb inh	Vif A3G
COc1cccc(NC(=O)CSc2nnc(Cc3cccs3)n2-c2ccc(C)cc2)c1	-5.9	2.5	2.6	-24.9	-5.7	-1.7	-3.8%
COc1cccc(NC(=O)CCC2CCN(Cc3nccs3)CC2)c1	-1.0	13.4	1.7	-3.1	4.8	0.5	-0.5%
Cc1cc(NS(=O)(=O)c2ccc(NS(=O)(=O)c3ccc(CC(C)C)cc3)cc2)nc(C)n1	.	2.9	-2.4	32.3	-5.0	-3.0	.
O=C(O)CNC(=O)c1ccc(NS(=O)(=O)c2ccc3ccccc3c2)cc1	.	0.6	-2.2	-1.0	-5.2	3.6	3.6%
COc1ccc(NC(=S)N2CCN(CCN3C(=O)c4cccc5cccc(c45)C3=O)CC2)cc1	-46.0	5.6	1.8	-12.8	-20.2	2.6	2.9%
CCOC(=O)c1[nH]cnc1C(=O)Nc1ccccc1	-2.7	0.1	23.0	6.7	3.9	?	-1.0%
O=C(CSc1nc2[nH]c(=O)cc(O)c2s1)Nc1ccc(Br)cc1	82.3*	-1.1	-2.4	.	.	.	-2.9%
COCCCNC(=S)NCCc1ccc(F)cc1	5.5	1.5	-2.6	-13.5	3.0	-0.8	?
COc1cccc(C(=O)Nc2cccc(-c3nc4ncccc4o3)c2C)c1	5.7	-5.4	-0.9	-2.5	7.1	2.6	-3.4%
O=C(/C=C/c1ccc(Cl)cc1)Nc1ccc(N2CCOCC2)cc1	-10.7	0.9	-0.5	29.2	6.9	3.4	.
NS(=O)(=O)c1ccc(N/N=C/c2ccccc2C(=O)O)c([N+](=O)[O-])c1	-17.5	0.1	-0.8	-2.2	-2.1	-4.2	-3.7%
O=C(NCc1cccs1)c1ccc([N+](=O)[O-])cc1	-11.1	-11.1	-0.5	2.0	4.8	1.2	-3.5%
CC(=O)c1nc(-c2ccccc2)sc1C	-2.4	-3.5	3.1	18.7	-9.2	4.0	-6.6%
CCOC(=O)N1CCC(=NNc2ccc(S(N)(=O)=O)cc2[N+](=O)[O-])CC1	-16.0	11.4	-2.7	-7.6	0.5	?	?
O=C(Cn1cc([N+](=O)[O-])cn1)NCc1ccco1	.	-0.1	-3.5	-4.3	-1.0	0.6	?
COc1cccc(C(=O)c2c[nH]c(C(=O)NCCCN(C)C)c2)c1	-3.3	-4.5	2.2	5.3	2.3	0.8	?
CCc1cc2c(=O)c(-c3nc4ccccc4n3C)c(COCC(=O)O)oc2cc1OC(=O)C(C)(C)C	0.9	11.7	0.0	-27.2	0.4	0.3	17.8%
Cc1cc(NC(=O)CSc2nnc(Nc3ccccc3)s2)no1	0.2	-1.0	1.1	3.5	16.1	0.3	4.5%
COC(=O)C1(CO)NC(c2ccc(C)cc2)C2C(=O)N(c3ccccc3)C(=O)C21 (configuration not stated)	-16.5	1.2	-5.1	8.5	-1.5	?	2.1%
C=CCSC1=C(C#N)C(c2ccccc2Cl)CC(=O)N1 (configuration not stated)	-8.4	0.8	-6.2	-14.8	-1.3	1.8	1.8%
Cc1[nH]c2ccccc2c1C(=O)C(=O)N1CCN(C)CC1	-1.5	-3.2	-1.7	2.7	8.1	0.2	1.0%
O=[N+]([O-])c1ccccc1S(=O)(=O)NCCSc1ccccc1	-2.1	-4.6	-0.4	7.4	0.4	1.4	-2.4%
CN1C(=S)SC(N(O)C(=O)NC2CCCCC2)C1(C)C (configuration not stated)	4.9	1.1	-0.5	-7.5	3.1	-2.8	3.5%
CC(C)c1cc(C(=O)N2CCCC(N3CCN(c4ccccc4F)CC3)C2)nc(N)n1 (configuration not stated)	0.0	11.1	-4.3	-7.1	-0.7	-2.6	.
CN(C)S(=O)(=O)c1cccc(NC(=O)c2cc(-c3cccs3)nc3ccccc23)c1	-10.7	1.6	4.1	-1.4	1.1	5.0	.
COc1ccc(-c2nnc3ccc(SCC(=O)Nc4nc5ccccc5s4)nn23)cc1OC	6.2	-1.8	1.6	4.1	-0.8	-1.6	-22.6%
CCOC(=O)COc1c(Cl)cc(C2NC(=S)NC(c3ccccc3)=C2C(C)=O)cc1OCC (configuration not stated)	1.5	8.5	0.0	-6.3	1.7	-1.7	.
O=C(NCc1cccs1)C1CCCN(S(=O)(=O)c2ccc(Br)s2)C1 (configuration not stated)	-15.3	-4.2	-2.8	3.3	-0.8	0.8	-3.7%&-3.2%
Cc1ccc(S(=O)(=O)NC(=NCC(=O)O)c2ccccc2)cc1	-7.7	-1.3	-0.2	-3.5	2.3	-1.5	2.1%
Cc1ccc2ncnc(NCCCN3CCOCC3)c2c1	-13.6	5.2	1.3	-3.7	-5.5	2.5	0.7%
O=C(CSc1ncc(-c2ccccc2)[nH]1)Nc1cccc(O)c1	99.0*	5.1	-0.8	-5.0	-9.8	-1.4	4.2%
O=c1ccc(-c2ccc(S(=O)(=O)Nc3ccccc3Cl)o2)n[nH]1	-4.1	-0.3	-0.4	-5.5	4.0	2.6	.
Cc1cc(NC(=O)C(C)Sc2nc(-c3cccs3)nc3ccccc23)no1 (configuration not stated)	.	-12.2	-0.3	.	.	.	1.3%
CCCc1nn(C)c2c(=O)[nH]c(-c3cc(S(=O)(=O)N(CCO)CCO)ccc3OCC)nc12	-7.1	3.1	2.8	-6.0	0.1	3.8	-8.1%
O=C(NCc1ccncc1)C1CCN(S(=O)(=O)Cc2ccccc2)CC1	-6.7	-5.3	4.0	-1.3	-1.9	8.2	2.4%
Cn1c(CC(=O)Nc2ccccc2F)nnc1SCC(=O)Nc1nncs1	-9.3	3.7	-3.0	3.9	7.3	1.8	.
CC(C)COc1ccc(Cc2cnc(N)nc2N)cc1	-1.9	-13.0	1.5	-3.8	-2.5	5.0	4.8%
CSc1nc(C)cc(SCC(=O)Nc2ccc(Cl)cc2Cl)n1	-2.6	-7.2	3.0	-11.5	5.8	-1.4	18.3%
COc1ccc(-c2cn[nH]c2C)cc1OC	-31.5	5.2	-1.6	1.1	1.4	-2.3	-5.1%
COc1cc(C2NC(=O)NC(c3ccccc3)=C2C(C)=O)cc(Cl)c1OCC(=O)O (configuration not stated)	-17.8	6.9	-2.5	-4.2	-9.0	-1.8	14.3%
CC(=O)N1CCC(N(CCN2CCOCC2)C(=S)Nc2cc(C)ccc2C)CC1	-4.5	12.8	-1.7	9.7	2.7	1.4	.
Cc1c(C)c2c(OCC(=O)N3CCC[C@H]3C(=O)O)cc3c(c2oc1=O)CCC(C)(C)O3	8.6	-11.8	1.8	-6.9	2.0	4.5	.
CCn1ncc(/C=N\NC(=O)Cc2ccc([N+](=O)[O-])cc2)c1C	-2.1	-6.2	0.4	1.2	-5.7	1.7	0.3%
CCn1c(=N)n(CC(O)c2ccco2)c2ccccc21 (configuration not stated)	-2.3	-7.0	-7.7	1.0	1.4	-5.8	1.2%
COc1ccc2c(c1)-c1nc(/N=C/c3c(O)ccc4ccccc34)sc1CC2	.	-19.6	-3.8	-1.1	.	-0.1	.
CCc1cccc(NC(=O)Cn2cc(C=O)c3ccccc32)c1	.	-12.7	0.2	1.8	-3.2	-2.1	-4.6%
CCOC(=O)c1c(CN2CCN(C)CC2)oc2ccc(O)cc12	17.1	3.4	-0.2	2.6	6.0	7.5	2.7%
COc1ccc(/C(N)=N/OC(=O)c2c(-c3ccccc3Cl)noc2C)cc1OC	-17.5	8.6	-1.6	-3.1	-3.1	0.1	.
CCOC(=O)c1sc2nc(COC(=O)c3c(F)cccc3F)[nH]c(=O)c2c1C	.	3.4	33.1	3.7	-2.6	-0.9	-7.6%
O=C(NCCNS(=O)(=O)c1ccc(C(F)(F)F)cc1)N1CCOCC1	-0.7	-6.3	0.8	-2.8	1.6	-0.1	-3.9%
O=c1c(O)c(-c2cccs2)oc2ccccc12	48.1	14.7	-6.9	-5.2	0.6	93.4*	7.8%
CC(C)N1C(=O)CCC1C(=O)NCCc1ccc(Cl)cc1 (configuration not stated)	.	1.4	0.9	-5.1	2.2	0.5	.
COc1ccc(/C=C/C(=O)O)cc1S(=O)(=O)N1CCCCC1	-7.6	11.0	2.9	7.1	-5.2	-1.5	12.0%
CC1=NC(C#N)=C(C#N)NC(C)(C)C1	-0.5	6.5	-3.4	-4.2	-0.6	4.9	26.3%
CCCCCCOC(=O)C1=C(C)NC(=O)NC1c1ccc2c(c1)OCO2 (configuration not stated)	-6.3	-2.8	1.0	5.0	-1.3	-6.2	.
CCOc1ccccc1N(C)C(=O)c1cc2c(=O)n(CC)c3ccccc3c2s1	.	34.0	-1.7	-0.7	2.7	-1.0	-6.5%
CC(NC(=O)c1cc2ccccc2o1)c1ccccc1 (configuration not stated)	-1.8	-1.8	1.8	-18.1	-1.6	-2.0	10.5%
CCCCN(C)CCNC(=O)c1cc2c(-c3ccccc3F)nn(C)c2s1	.	5.3	-0.1	1.2	2.0	-5.9	0.7%
COc1ccc(NC(=O)C2CCCN(S(=O)(=O)c3cccc4cccnc34)C2)cc1OC (configuration not stated)	-28.5	5.0	-0.5	4.2	2.6	4.3	0.9%
O=C(/C=C/c1ccc(Cl)c([N+](=O)[O-])c1)Nc1ccc(N2CCCC2)cc1	-4.7	5.4	1.1	-4.4	-3.4	3.5	8.1%

The results go on.
SMILES	ALR inh	Beta2AR agonist	HNF4A DNA FP	Calb FLC	LANA-H2A inh	RanGTP-Impb inh	Vif A3G
COc1ccc(C(=O)Nc2ccccc2C(=O)NC(C)C)cc1OC	-6.8	-12.0	0.4	-0.9	1.8	-0.2	5.7%
CCC(C)Sc1ccc([C@@H]2[C@H]3C(=O)N(CC)C(=O)[C@H]3[C@]3(C(=O)OC)CCCCN23)cc1 (some centres not stated)	.	3.9	17.7	.	-8.5	.	.
Cn1cc(S(=O)(=O)NCCc2ccccc2)c(=O)n(C)c1=O	-2.0	-3.7	-1.5	7.4	-4.4	2.2	7.6%
COc1ccc(OC)c(S(=O)(=O)NCC(c2cccs2)N2CCc3ccccc3C2)c1 (configuration not stated)	-1.6	-2.4	9.2	1.7	3.2	-1.4	2.2%
O=C(Nc1ccn(Cc2c(F)c(F)cc(F)c2F)n1)c1ccc(COc2ccccc2Cl)cc1	1.5	8.6	-1.5	18.5	0.2	1.1	-0.4%
CC(C)c1cc(C(=O)NC2CCCc3c2cnn3-c2ccccc2F)no1 (configuration not stated)	5.8	-3.9	-0.5	23.0	0.8	0.1	.
COc1ccc(CNC(=O)c2ccccc2[N+](=O)[O-])cc1	-1.7	4.0	-3.6	3.6	-0.6	2.7	31.4%
CCOC(=O)c1c(C)n(C)c2ccc(OC)c(NC(=O)CCN3CCSCC3)c12	-20.5	7.9	5.6	?	1.8	2.9	0.4%&4.5%
C=CCOC(=O)C1=C(C)OC(N)=C(C#N)C1c1c(C)nn(-c2ccccc2)c1Cl (configuration not stated)	.	-1.9	2.7	1.8	-9.1	.	0.2%
CCCC/C(O)=C/c1nc2ccccc2[nH]c1=O	0.4	-7.5	-2.9	-2.3	2.7	1.1	12.1%
Cc1ccc(C(=O)N2CCN(Cc3ccc4c(c3)OCO4)CC2)c(Cl)c1	-4.9	-4.8	-0.7	-5.4	-1.5	-9.0	.
O=C1/C(=C\c2ccc(O)cc2)SC(=S)N1Cc1ccccc1	-12.5	-109.1	93.9*	20.5	-16.6	-9.6	.
COc1ccc(CC(=O)N(C)CC(=O)Nc2cccc(F)c2)cc1S(=O)(=O)N1CCOCC1	0.4	-6.8	2.1	-0.8	4.1	-0.8	.
CN1CCc2nc(NC(=O)c3cccc(S(=O)(=O)N4CCc5ccccc54)c3)sc2C1	1.6	1.7	49.8*	.	1.3	48.1*	0.5%
Cc1cccc(C(=O)Nc2ccc3c(c2)C(=O)N(CC(C)C)C3=O)c1	-20.8	4.2	-4.6	-11.5	1.3	?	-4.3%
